Polio RdRp inh – inhibitors of poliovirus RNA polymerase binding and polymerization; % elongation, % (compound at 16.7 µg/mL); AID 588519; poliovirus polymerase elongation, fluorescence polarization; stronger effect = lower value; P03300; actives 0.66% (n = 150,000); in the data active = % elongation below about 90%; note: some results filed as inactive read as strong as hits
Target sequence (P03300 1749-2209 limits assumed): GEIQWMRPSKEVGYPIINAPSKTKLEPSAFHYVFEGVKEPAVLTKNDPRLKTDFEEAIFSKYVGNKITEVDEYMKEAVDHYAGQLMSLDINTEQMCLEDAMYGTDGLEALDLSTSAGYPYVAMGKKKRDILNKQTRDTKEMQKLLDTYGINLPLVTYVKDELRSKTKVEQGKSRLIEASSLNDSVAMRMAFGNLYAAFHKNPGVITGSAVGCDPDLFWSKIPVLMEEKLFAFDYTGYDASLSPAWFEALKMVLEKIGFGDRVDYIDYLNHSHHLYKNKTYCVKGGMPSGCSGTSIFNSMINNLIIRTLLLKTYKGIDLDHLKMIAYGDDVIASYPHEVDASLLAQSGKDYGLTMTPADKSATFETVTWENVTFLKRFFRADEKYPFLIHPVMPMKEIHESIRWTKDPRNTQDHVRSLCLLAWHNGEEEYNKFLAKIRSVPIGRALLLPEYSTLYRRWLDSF
MenB inh – blocks the Mycobacterium tuberculosis MenB enzyme; P9WNP5; AID 540299; actives 0.43% (n = 100,000); MenB enzyme assay, absorbance read-out; some hits fall short of the stated cut; inhibition, %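 (about 12 µg/mL by stock and volumes)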;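 active = mean of two replicates above 30%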;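 note: 0% = no compound and 100% = wells with inactive enzyme; the first replicate is given; strong numbers were not always called active; inactives centre near -10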
Target sequence (P9WNP5 whole entry, looked up): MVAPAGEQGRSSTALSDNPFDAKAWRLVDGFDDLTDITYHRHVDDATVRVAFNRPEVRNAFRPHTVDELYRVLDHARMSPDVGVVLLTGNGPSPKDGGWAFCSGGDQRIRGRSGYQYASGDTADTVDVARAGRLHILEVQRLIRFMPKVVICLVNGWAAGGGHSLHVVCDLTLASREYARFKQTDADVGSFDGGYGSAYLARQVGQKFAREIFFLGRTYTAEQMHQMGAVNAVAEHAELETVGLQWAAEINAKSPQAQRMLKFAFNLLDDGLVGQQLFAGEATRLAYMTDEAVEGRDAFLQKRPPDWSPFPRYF
MbtI inh – blocks the Mycobacterium tuberculosis siderophore enzyme MbtI | inhibition, %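 (about 17 µg/mL by stock and volumes)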 | actives 0.89% (n = 100,000) | purified MbtI enzyme, fluorescence intensity read-out | P9WFX0;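 active = above 50% in both replicates, above 80% if mildly self-fluorescent; inactive = the rest, strongly fluorescent compounds included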;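 note: 0% = mean of negative and 100% = mean of positive controls; one replicate is shown; some compounds called inactive have numbers as strong as hits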
Polio RdRp inh intensity – recorded beside Polio RdRp inh, whose call it bears; % elongation; measured here: total intensity read-out; formula for this scale not given here;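 total fluorescence in place of polarization; lower means less elongation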
* hit, by the source's call; i = inactive; · = not tested or not shown; & = joins results of further samples.

SMILES	Polio RdRp inh	Polio RdRp inh intensity	MenB inh	MbtI inh
COC(=O)c1ccc2c(c1)N(Cc1ccccc1F)C(=O)CS2=O (stereo unspecified)	102.0	101.0	-0.2	-6.3
Cc1nn(-c2ccccc2)c2c1-c1sc(C(=O)NC3CC3)cc1CC2	101.0	102.0	10.1	132.1
CCc1ccc2c(c1)C1CC(C)(NC(=S)N1)O2 (stereo unspecified)	99.0	96.0	15.4	22.5
Cc1cc(C)cc(OC(=O)CCN2C(=O)c3ccccc3C2=O)c1	102.0	99.0	-25.7	11.9
O=C1CC(n2nc(Nc3ccccc3)n(-c3ccccc3)c2=S)C2COC1O2 (stereo unspecified)	102.0	107.0	7.4	·
N#Cc1ccccc1COC(=O)c1nc(-c2ccccc2)n(-c2ccccc2)n1	102.0	106.0	-7.0	3.9
O=C(CSc1nc2c(sc3ccccc32)c(=O)n1-c1ccccc1)NCc1ccco1	101.0	100.0	7.3	40.7
Cc1ccc(C)c(NC(=O)Cn2ncc3ccccc32)c1	102.0	103.0	-5.3	-0.9
CN1C(=O)/C(=C2\SC(=S)N(C3CCS(=O)(=O)C3)C2=O)c2cc(Br)ccc21 (stereo unspecified)	101.0	101.0	6.8	0.0
O=c1[nH]c(CN2CCCCC2)nc2ccccc12	103.0	109.0	9.5	-4.0
CC1CC(=O)NN=C1c1cccs1 (stereo unspecified)	103.0	102.0	8.2	-1.4
O=C(O)CCCC(=O)N1CCN(C(c2ccccc2)c2ccccc2)CC1	104.0	102.0	-6.0	-8.6
COc1ccc2c(CSc3nnc(-c4cccs4)n3N)cc(=O)oc2c1	102.0	101.0	-6.3	22.1
S=C(NC1CCCCC1)N(Cc1ccccc1)Cc1ccccc1	104.0	106.0	-81.1	-10.2
CCn1nc(C)c(N=Cc2ccc(N(C)C)c(Br)c2)c1C	101.0	103.0	-15.0	·
CCS(=O)(=O)N1Cc2ccccc2CC1C(=O)OCC(=O)Nc1ccc(C(F)(F)F)cc1 (stereo unspecified)	98.0	103.0	9.1	-15.7
CCC1(C(=O)OC)NC(c2ccc(OC)cc2)C2C(=O)N(C)C(=O)C21 (stereo unspecified)	102.0	100.0	-35.8	-1.1
Cc1nnc(NCCCO)[nH]c1=O	101.0	102.0	4.3	-6.3
CC(NC(=O)CSc1nc2ccc(N=Cc3ccccc3O)cc2s1)c1ccccc1 (stereo unspecified)	104.0	105.0	-37.2	11.6
O=C(Cn1ncc2ccccc21)NCCc1ccccc1	103.0	103.0	-10.0	-8.5
COc1cc(COC(=O)c2ccc3c(c2)NC(=O)C2CCCN32)ccc1OC(F)F (stereo unspecified)	102.0	103.0	-15.0	9.8
CCCc1cc(=O)oc2cc(OCC(=O)NC3CCCC3)c(Cl)cc12	99.0	103.0	·	-15.4
C/C(=N\O)c1nnn(-c2cc(C(F)(F)F)cc(C(F)(F)F)c2)c1C	104.0	103.0	-12.6	-10.4
CC(NC=O)c1nc2ccccc2n1C/C=C/c1ccccc1 (stereo unspecified)	101.0	105.0	-20.5	0.8
CN(C)S(=O)(=O)c1ccccc1	101.0	99.0	28.8	-0.3
CCOc1ccccc1CNC(=O)c1cn(-c2cccc(OC)c2)c(=O)c2ccccc12	100.0	104.0	-9.2	5.2
CCOC(=O)N1CCN(c2cc(Nc3c(C)cc(C)cc3C)c3c4c(onc24)-c2ccccc2C3=O)CC1	75.0	194.0	-4.3	-6.8
Cc1nc2cc(NC(=O)CCn3[nH]c(=O)ccc3=O)ccc2n1-c1ccccc1	100.0	110.0	-29.4	-9.7
O=S(=O)(Nc1ccc(Cl)cc1OC(F)(F)F)C(F)(F)F	98.0	96.0	-10.5	-20.8
C[C@]12C=CC(=O)C=C1CC[C@@H]1[C@@H]2[C@@H](O)C[C@@]2(C)[C@H]1CC[C@]2(O)C(=O)CO	100.0	101.0	-7.8	-14.4
Cc1[nH]cnc1CN1CCCCCCC1	100.0	103.0	-1.6	-6.1
Cc1nc2cc(C(=O)NCCN(C)C)ccc2n1-c1ccccc1	105.0	99.0	-75.5	20.0
Nc1cc(Cl)ccc1C(=O)OCC(=O)N1CCCC1	103.0	103.0	·	-18.8
CO/N=C(\C(=O)NC1C(=O)N2C(C(=O)OCOC(=O)C(C)(C)C)=C(/C=C\c3scnc3C)CSC12)c1csc(N)n1 (stereo unspecified)	100.0	103.0	-1.0	-14.7
COc1cc(-c2nc3c(C(C)(C)C)cc(C(C)(C)C)c(O)c3o2)ccc1O	102.0	97.0	-16.8	i
CCc1ccc(-c2cc(C)no2)cc1S(=O)(=O)N1CCN(c2ccccn2)CC1	102.0	104.0	-5.5	12.1
COc1ccc(Cn2c(=O)[nH]c3cc(C(=O)NCc4ccccc4)ccc3c2=O)cc1	102.0	105.0	-7.9	-2.8
CC(NC(=O)Cc1noc2ccccc12)c1ccccc1 (stereo unspecified)	105.0	94.0	-28.4	-2.8
CCCc1noc2c1C(c1cc(Br)ccc1F)C(C#N)=C(N)N2 (stereo unspecified)	103.0	106.0	-15.0	5.3
Cc1cccc(NCc2nnc(-c3ccccc3)o2)c1	101.0	103.0	-15.0	-9.2
Nc1ccc(S(=O)(=O)NC(=O)c2ccccc2)cc1	100.0&100.0	98.0&101.0	-3.6&11.4	-2.6&-9.8
COC(=O)C1=C(C)SC(N)=C(C#N)C1c1ccc(OC(C)C)c(OC)c1 (stereo unspecified)	100.0	121.0	-9.9	·
Nc1c(Nc2ccc(F)cc2)sc2c(O)cc(=O)[nH]c12	133.0	150.0	-80.2	·
Cc1oc2nc[nH]c(=O)c2c1C(=O)OC(C)C(=O)NC1CCCCC1 (stereo unspecified)	103.0	112.0	-13.3	-7.4
CNC(=O)C1=C(C)NC(=O)NC1c1ccc(Cl)cc1 (stereo unspecified)	102.0	100.0	-5.4	-7.3
CC1CCCN(CC(O)COCc2cccs2)C1 (stereo unspecified)	101.0	96.0	·	-1.8
Cn1c(=O)cc(Nc2ccccc2)c2c(=O)n(-c3ccccc3)c(=O)n(-c3ccccc3)c21	102.0	104.0	-6.1	-7.2
CC(=O)Nc1cc(NC(C)=O)cc(C(F)(F)F)c1	105.0	105.0	·	-1.4
CCc1ccc(NC(=O)Cn2c(C(=O)OC)cc3sccc32)cc1	102.0	101.0	-19.2	2.1
CCCN(S(=O)(=O)c1ccc(S(=O)(=O)N2CCCC2)cc1)S(=O)(=O)c1cccc(Cl)c1	101.0	99.0	-32.9	-7.2
O=S(Nc1ccc2c(c1)OCCO2)C12CC3CC(CC(C3)C1)C2 (stereo unspecified)	99.0	102.0	-18.9	-4.8
CS(=O)(=O)c1ccccc1-c1nnc(NC(=O)COc2ccc(Cl)cc2)o1	106.0	98.0	-21.7	-25.9
O=c1oc2ccccc2cc1-c1nnc(-c2cccc(Cl)c2)o1	101.0	102.0	27.0	15.1
CC1CCN(C(=O)CSc2nnc3n2CCCCC3)c2ccccc2S1 (stereo unspecified)	99.0	100.0	-9.2	-7.4
CNS(=O)(=O)c1ccc(F)cc1	101.0	104.0	·	-3.9
COc1ccc(/C=N\N2CCN(Cc3ccc(C)cc3)CC2)cc1OC	99.0	102.0	-16.0	9.6
CCc1ccc(NC(=O)CCc2nc3cccnc3n2-c2ccccc2)cc1	101.0	104.0	-4.8	-0.1
O=C1CCC(C2CCC3(CC2)OCCO3)CC1	103.0	98.0	-49.5	-1.2
CNC(=S)N1CCn2cccc2C1c1ccc(F)cc1 (stereo unspecified)	100.0	102.0	-14.5	13.9
Cc1sc2nc(CN3CCOCC3)nc(N(C)Cc3ccccc3)c2c1C	111.0	126.0	-42.9	-7.1

Just MbtI inh, Polio RdRp inh and Polio RdRp inh intensity, for some of the entries so far:
| smiles | MbtI inh | Polio RdRp inh | Polio RdRp inh intensity |
| --- | --- | --- | --- |
| CC1CCN(C(=O)CSc2nnc3n2CCCCC3)c2ccccc2S1 (stereo unspecified) | -7.4 | 99.0 | 100.0 |
| CNS(=O)(=O)c1ccc(F)cc1 | -3.9 | 101.0 | 104.0 |
| COc1ccc(/C=N\N2CCN(Cc3ccc(C)cc3)CC2)cc1OC | 9.6 | 99.0 | 102.0 |
| CCc1ccc(NC(=O)CCc2nc3cccnc3n2-c2ccccc2)cc1 | -0.1 | 101.0 | 104.0 |

(next part)
SMILES	Polio RdRp inh	Polio RdRp inh intensity	MenB inh	MbtI inh
COc1cccc(CSc2nnc(-c3ccc(F)cc3)o2)c1	100.0	101.0	4.9	-23.5
O=C(O)c1cc2c([nH]1)CCCC2	102.0	104.0	-18.0	-2.0
N#Cc1c(-c2ccc3c(c2)OCO3)cc(-c2ccc(F)cc2)nc1N	101.0	102.0	-11.6	74.9
N=C1C(c2nc(-c3ccc(Br)cc3)cs2)=C(O)CN1C1CCS(=O)(=O)C1 (stereo unspecified)	101.0	107.0	-18.2	2.8
O=C1NC(=O)c2cccc3cccc1c23	99.0	105.0	-9.3	83.6
COC(=O)C1=C(C)NC2=C(C(=O)CC(C)(C)C2)C1c1ccncc1 (stereo unspecified)	94.0	80.0	-83.6	-5.1
CC1(C)CC(NCc2ccccc2)CC(C)(C)N1	103.0	103.0	-22.2	-2.5
COC(=O)c1c(N)sc(/C(C)=C/C#N)c1C	106.0	109.0	-13.2	·
COc1ccccc1/C=C(/C(=O)OCC(=O)Nc1oc(C)c2c(C)n[nH]c(=O)c12)c1ccccc1	102.0	102.0	-11.1	-4.0
CCN1CCN(C(=O)C2c3ccccc3C(=O)N(Cc3ccc(F)cc3)C2c2ccc(OC)cc2)CC1 (stereo unspecified)	101.0	100.0	7.4	-1.4
CCN1CCCC1CNC(=O)c1cc(NC(C)=O)c(N(C)C)cc1OC (stereo unspecified)	104.0	103.0	-16.0	3.0
NC1=NN(c2c(Cl)cc(Cl)cc2Cl)C(=O)C1	99.0	105.0	7.9	13.3
Cc1occc1-c1nnc(SCC(=O)NCc2ccc3c(c2)OCO3)n1CC(C)C	102.0	104.0	-10.8	-7.1
COc1cccc(CNCC(O)Cn2nnnc2-c2ccccc2)c1 (stereo unspecified)	105.0	107.0	-9.3	-5.0
O=C(CSc1nc2ccccc2o1)N1CCC(n2cccc2)CC1	108.0	115.0	3.3	-14.2
COC(=O)c1ccc(CN2C(=O)NC(Cc3c[nH]c4ccccc34)C2=O)cc1 (stereo unspecified)	100.0	107.0	-26.3	-5.0
CCc1cc2c(N(CC)CC)nc(C)nc2s1	105.0	102.0	-42.1	-0.6
N#CC(C#N)=C(N)/C(C#N)=C/c1ccco1	98.0	102.0	-232.9	15.8
COc1ccc(C(=O)NCc2nnc(SCc3nc4ccccc4c(=O)[nH]3)n2C)cc1	99.0	101.0	-6.3	-6.4
COc1ccc(NC(=O)C(Cc2ccccc2)n2cccc2)cc1 (stereo unspecified)	102.0	103.0	-12.3	3.9
COc1ccc(C(CNC(=O)c2oc3ccc(C)cc3c2C)N2CCCCC2)cc1 (stereo unspecified)	101.0	99.0	17.6	5.0
COC(=O)c1cc(=O)n2c(-c3cccs3)nnc2s1	102.0	95.0	-19.2	1.2
Cc1cccc(NC(=O)CSc2ncnc3c2oc2ccccc23)c1	98.0	100.0	2.1	-4.3
O=C(OC1c2ccccc2C(=O)N1Cc1ccccc1)c1cccc(Cl)c1 (stereo unspecified)	104.0	96.0	-21.7	-11.4
CC1CCC(N2CC(=O)N(Cc3ccc4c(c3)OCO4)C(c3ccc(F)cc3)C2=O)CC1 (stereo unspecified)	99.0	103.0	-2.1	-17.4
CCN(Cc1ccc(Br)s1)C(=O)CSc1nnc(C2CC2)n1C1CC1	103.0	115.0	-24.1	-11.3
CC1CCN(c2cc(N(C)C)c3noc4c3c2C(=O)c2ccccc2-4)CC1	103.0	135.0	8.4	-6.2
CC1=C(C#N)C(c2ccccc2)C2=C(CC(c3ccc(Br)cc3)CC2=O)O1 (stereo unspecified)	100.0	107.0	-33.4	·
O=C1C(CCS(=O)c2ccccc2)C(=O)N(c2ccccc2)N1c1ccccc1 (stereo unspecified)	100.0&100.0	100.0&101.0	-5.6&8.4	-7.0&-6.5
C=CCn1c(SCC(=O)Nc2c(C)n(C)n(-c3ccccc3)c2=O)nnc1-c1ccncc1	103.0	105.0	-9.8	-8.2
COc1cc(C=Nc2cc(C)ccc2C)cc(OC)c1OC	102.0	107.0	2.1	·
O=C1Oc2ccccc2C(=O)/C1=C/N1CCCCC1	98.0	107.0	1.2	27.4
CCN1C(=O)/C(=C2\SC(=Nc3cccc(Cl)c3C)NC2=O)c2ccccc21	102.0	105.0	8.2	-11.6
COC(=O)c1ccc2c(c1)N(CC#N)C(=O)CS2	100.0	99.0	-21.3	-8.1

Entries of single compounds from above. Values in the order: Polio RdRp inh, Polio RdRp inh intensity, MenB inh, MbtI inh
CNC(=O)C1=C(C)NC(=O)NC1c1ccc(Cl)cc1 (stereo unspecified) reads 102.0, 100.0, -5.4, -7.3
COc1ccc2c(CSc3nnc(-c4cccs4)n3N)cc(=O)oc2c1 reads 102.0, 101.0, -6.3, 22.1
COC(=O)c1c(N)sc(/C(C)=C/C#N)c1C reads 106.0, 109.0, -13.2, ·
CCOC(=O)N1CCN(c2cc(Nc3c(C)cc(C)cc3C)c3c4c(onc24)-c2ccccc2C3=O)CC1 reads 75.0, 194.0, -4.3, -6.8
C[C@]12C=CC(=O)C=C1CC[C@@H]1[C@@H]2[C@@H](O)C[C@@]2(C)[C@H]1CC[C@]2(O)C(=O)CO reads 100.0, 101.0, -7.8, -14.4
